miR-21 reporter – miR-21 reporter, rising signal; HeLa miR-21 FLuc reporter, luciferase, 48 h; Potency, µM (titrated, usually from 38.3 µM), for inactives: at the top dose reporter change, positive = more light; 340,000 tested, under 10 active; active = well fitted rising curve with a large enough effect; inconclusive = small, poorly fitted or top-dose-only effect; inactive = no such curve, though single readings can be large or run the other way;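 note: % of control where 0% means no effect; miR-21 action dims this reporter so a rising signal means less miR-21 action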
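Compounds were titrated across several concentrations (up to approximately 40 uM) and incubated 48 hours with HeLa miR-21-FLuc reporter cells (miR-21 target sequence downstream of FLuc, endogenous miR-21). Readout was firefly luciferase luminescence after lytic detection reagent.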
Rango-impB inh – Rango-importin beta binding inhibition. Q14974. Rango CFP/YFP FRET sensor + importin beta, 45 min. Potency, µM (series often up to 92.2 µM), without a hit: at the highest dose inhibition of complex formation. actives 0.031% (n = 340,000); active = rising FRET ratio curve, often small or poorly fitted; inconclusive = mostly compound fluorescence or quenching in the first reads; inactive = flat curves in all reads;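 note: potency is the fitted concentration of half-maximal effect; 0% = DMSO wells and 100% = buffer wells lacking importin beta; nearly all actives have a fitted effect of over 15% in size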
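Inhibition scored from the CFP 486 nm/YFP 530 nm FRET ratio 45 min after adding 0.125 microM importin beta to 50 nM Rango biosensor preincubated 5 min with compound (room temperature, PBS with DTT, Tween-20, BSA). No-importin wells as positive control.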
Rango release inh – inhibitors of RanGTP-induced Rango-importin beta complex dissociation | AID 540253 | actives 0.071% (n = 340,000) | Potency, µM (top dose mostly 46.1 µM), inactives show top-dose activity change, negative = inhibition | Biochemical FRET Rango-importin beta, RanGTP-induced dissociation | O95149+P62826; active means falling FRET ratio curve, often poorly fitted, with flat reads before Ran was added; inconclusive means other falling curves, or compound fluorescence or quenching; inactive means flat or rising ratio curve;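 note: potency is the fitted concentration of half-maximal effect; % of control where 0% means no effect; nearly all actives have a fitted effect of over 45% in size; -100% = wells without RanGTP and RCC1; the record marks most hits as doubtful in a second field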
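Rango FRET biosensor (snurportin-1 IBB flanked by N-terminal EYFP and C-terminal CFP10) at 0.1 uM, with 0.25 uM importin beta in PBS, 1mM DTT, 0.02% Tween-20, 0.1% BSA. 0.6 uM Ran, 2mM GTP and 0.2 uM RCC1 were then added for 45 min at room temperature. Inhibition read as loss of FRET rise.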
GLA inh pH 4.5 – alpha-galactosidase A (human) inhibition, pH 4.5; P06280; purified enzyme, 4-MU-alpha-Gal fluorescence, pH 4.5; activity change, negative = inhibition, % at 105 µM; 230,000 tested, under 10 active; AID 1467; inconclusive = small, poorly fitted or top-dose-only inhibition, or a rising curve; inactive = flat fitted curve, though single readings scatter; no compound was filed as active;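 note: 0% = full activity with enzyme and -100% = basal without enzyme; dose as in the result columns while the protocol names 77 µM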
Target sequence (P06280 whole entry, looked up): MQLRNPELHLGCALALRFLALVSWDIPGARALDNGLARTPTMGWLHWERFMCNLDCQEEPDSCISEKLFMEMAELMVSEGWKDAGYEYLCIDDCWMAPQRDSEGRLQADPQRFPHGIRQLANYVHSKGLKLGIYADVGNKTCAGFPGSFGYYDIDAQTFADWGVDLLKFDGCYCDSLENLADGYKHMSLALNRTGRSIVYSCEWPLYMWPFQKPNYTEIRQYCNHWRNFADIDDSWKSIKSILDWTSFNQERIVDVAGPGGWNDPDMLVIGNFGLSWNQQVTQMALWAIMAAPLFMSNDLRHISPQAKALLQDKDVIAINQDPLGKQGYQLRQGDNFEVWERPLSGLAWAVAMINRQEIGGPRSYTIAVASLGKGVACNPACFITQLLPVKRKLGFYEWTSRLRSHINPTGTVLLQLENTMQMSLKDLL
Active calls of the source: *; ? = inconclusive; . = not tested or not shown.

The opening 12 records, ahead of the listing:
# | Molecule | miR-21 reporter | Rango-impB inh
1 | Clc1ccc(-c2nnc3n2-c2ccccc2SC3)cc1 | -13% | 2.7%
2 | O=C(CCN1C(=O)c2cccc3cccc(c23)C1=O)N1CCN(c2ccccc2F)CC1 | -3% | 0.1%
3 | O=C(Cc1cccs1)Nc1nc2ccccc2s1 | -34% | -1.7%
4 | CC1CN(C(=O)CNC(=O)Cc2cccc3ccccc23)CC(C)O1 (stereo unspecified) | . | 0.0%
5 | COC(=O)C1=C(C)OC(N)=C(C#N)C1c1c(C)nn(-c2ccccc2)c1Cl (stereo unspecified) | -9% | ?
6 | COc1ccc(NC(=O)N2c3ccccc3C(C)=CC2(C)C)cc1 | -44% | 0.3%
7 | O=C(Nn1cnnc1)C1CCCN1S(=O)(=O)c1ccc(F)cc1 (stereo unspecified) | -5% | 0.7%
8 | CC(C)(C)NS(=O)(=O)c1cccc(S(=O)(=O)c2cccc(S(=O)(=O)NC(C)(C)C)c2)c1 | -50% | -2.2%
9 | Cc1ccc(NC(=O)C2CC2C)cc1S(=O)(=O)N1CCOCC1 (stereo unspecified) | . | -0.3%
10 | O=c1c2cc(Cl)ccc2nc(-c2ccccc2)n1O | 1% | -1.5%
11 | CCCn1c(=S)[nH]c2cc(C(=O)N3CCN(C4CCCCC4)CC3)ccc2c1=O | -1% | -1.7%
12 | CC(C)N(c1ccccc1)c1ccc(NC(=O)CCl)cc1 | ? | 3.0%

# | Rango release inh | GLA inh pH 4.5
1 | -7% | -2
2 | -8% | 0
3 | -5% | -9
4 | 1% | .
5 | -1% | -6
6 | -12% | 0
7 | 12% | -14
8 | -5% | -1
9 | 0% | .
10 | 20% | -1
11 | 20% | .
12 | 2% | 4

Main list, repeating the preview:
# | Molecule | miR-21 reporter | Rango-impB inh
1 | Clc1ccc(-c2nnc3n2-c2ccccc2SC3)cc1 | -13% | 2.7%
2 | O=C(CCN1C(=O)c2cccc3cccc(c23)C1=O)N1CCN(c2ccccc2F)CC1 | -3% | 0.1%
3 | O=C(Cc1cccs1)Nc1nc2ccccc2s1 | -34% | -1.7%
4 | CC1CN(C(=O)CNC(=O)Cc2cccc3ccccc23)CC(C)O1 (stereo unspecified) | . | 0.0%
5 | COC(=O)C1=C(C)OC(N)=C(C#N)C1c1c(C)nn(-c2ccccc2)c1Cl (stereo unspecified) | -9% | ?
6 | COc1ccc(NC(=O)N2c3ccccc3C(C)=CC2(C)C)cc1 | -44% | 0.3%
7 | O=C(Nn1cnnc1)C1CCCN1S(=O)(=O)c1ccc(F)cc1 (stereo unspecified) | -5% | 0.7%
8 | CC(C)(C)NS(=O)(=O)c1cccc(S(=O)(=O)c2cccc(S(=O)(=O)NC(C)(C)C)c2)c1 | -50% | -2.2%
9 | Cc1ccc(NC(=O)C2CC2C)cc1S(=O)(=O)N1CCOCC1 (stereo unspecified) | . | -0.3%
10 | O=c1c2cc(Cl)ccc2nc(-c2ccccc2)n1O | 1% | -1.5%

# | Rango release inh | GLA inh pH 4.5
1 | -7% | -2
2 | -8% | 0
3 | -5% | -9
4 | 1% | .
5 | -1% | -6
6 | -12% | 0
7 | 12% | -14
8 | -5% | -1
9 | 0% | .
10 | 20% | -1

# | Molecule | miR-21 reporter | Rango-impB inh
11 | CCCn1c(=S)[nH]c2cc(C(=O)N3CCN(C4CCCCC4)CC3)ccc2c1=O | -1% | -1.7%
12 | CC(C)N(c1ccccc1)c1ccc(NC(=O)CCl)cc1 | ? | 3.0%
13 | COC(=O)CNc1nc(-c2ccncc2)nc2ccccc12 | -7% | -3.7%
14 | COc1ccc(CC(=O)NC(C)c2nnc(SCC(=O)Nc3cc(C)ccc3OC)n2C)cc1 (stereo unspecified) | 4% | 0.3%
15 | O=C(NC1CCS(=O)(=O)C1)/C(=C/c1ccc(Cl)cc1)NC(=O)c1ccccc1 (stereo unspecified) | -1% | 3.1%
16 | COc1ccc(CCNS(=O)(=O)c2ccc3c(c2)CC(C)N3C(C)=O)cc1OC (stereo unspecified) | 4% | -0.3%
17 | CC1CCCCN1Cc1nc2ccccc2c(=O)[nH]1 (stereo unspecified) | -21% | -4.0%
18 | O=C1[C@@H]2C(c3ccccc3Cl)=NO[C@@H]2C(=O)N1Cc1ccccc1 | 6% | -3.0%
19 | Cc1ccc(NC2=NC(c3ccc(C)cc3)n3c(nc(C)cc3=O)N2)cc1 (stereo unspecified) | -4% | 0.7%
20 | CCNC(=S)N1CCN(c2ncccn2)CC1 | -1% | 1.0%

# | Rango release inh | GLA inh pH 4.5
11 | 20% | .
12 | 2% | 4
13 | -5% | -5
14 | -3% | 4
15 | 4% | 4
16 | 2% | 15
17 | 1% | 3
18 | 3% | 1
19 | -7% | -4
20 | 12% | 12

# | Molecule | miR-21 reporter | Rango-impB inh
21 | Cc1ccc(NC(=O)COC(=O)CCc2c[nH]c(=O)[nH]2)cc1 | -4% | ?
22 | Cc1oncc1C(=O)Nc1cccc(C#N)c1 | 0% | -1.7%
23 | O=C(c1cc(-c2cccs2)on1)N1CCN(c2ccccc2)CC1 | -3% | -2.5%
24 | CCOC(=O)c1c(C)oc2cc(Cl)c(O)c(CN(C)C)c12 | -83% | 2.3%
25 | Cc1cc(C(=O)Nc2sc3c(c2C#N)CCC(C(C)(C)C)C3)no1 (stereo unspecified) | -4% | -3.9%
26 | CC(C)c1ccccc1NC(=S)NC1CCCCC1 | 24% | -1.0%
27 | CCC(CC)C(=O)NCc1ccc2c(c1)cc(C)n2C | -4% | ?
28 | COC(=O)c1cn(-c2ccccc2)c(C)c1C(=O)OC | -8% | -5.3%
29 | N#CCCN(/N=C/c1cccnc1)C1=NS(=O)(=O)c2ccccc21 | -7% | 0.8%
30 | Cc1cccc(C(=O)NC2CCN(CC(=O)NCc3cccs3)CC2)c1 | 1% | -0.2%

# | Rango release inh | GLA inh pH 4.5
21 | -9% | -4
22 | 3% | .
23 | -4% | 3
24 | -7% | 0
25 | 1% | -20
26 | -7% | 6
27 | ? | 3
28 | -16% | 0
29 | 11% | 6
30 | -1% | 1

# | Molecule | miR-21 reporter | Rango-impB inh
31 | CC(C)N(CC(N)=O)C(=O)Cc1coc2cc3c(cc12)CCC3 | -1% | 6.7%
32 | O=C(Nc1ccccc1N1CCCCC1)c1ccc(Cl)cc1 | -29% | 1.2%
33 | O=C(NC1CCSc2ccccc21)c1cccc(OC(F)F)c1 (stereo unspecified) | -11% | 1.1%
34 | O=C(O)c1ccc(Oc2cc(Oc3ccc(C(=O)O)cc3)cc([N+](=O)[O-])c2)cc1 | 3% | 3.2%
35 | NC(=O)N/N=C/c1ccc(-c2ccc([N+](=O)[O-])cc2)o1 | -48% | ?
36 | NC(=O)C1CCN(C(=O)c2ccc3ccccc3c2)CC1 | -10% | -1.6%
37 | O=C1CCC(=O)N1c1nc2n(n1)C(c1ccccc1)C=C(c1ccc(Br)cc1)N2 (stereo unspecified) | 0% | ?
38 | CCOC(=O)c1ccccc1NS(=O)(=O)c1ccccc1 | -3% | -1.2%
39 | Cc1ccc(S(=O)(=O)N2CCCCC2)cc1C(=O)N(C)CC(=O)Nc1ccc(Cl)c(C(F)(F)F)c1 | -4% | 1.2%
40 | N/C(=N\OC(=O)/C=C/c1ccccc1)c1ccc(Br)cc1 | -8% | 4.4%

# | Rango release inh | GLA inh pH 4.5
31 | ? | -3
32 | -2% | .
33 | 15% | .
34 | 17% | .
35 | ? | -7
36 | -5% | .
37 | ? | 1
38 | 1% | -11
39 | 12% | .
40 | 19% | -1

# | Molecule | miR-21 reporter | Rango-impB inh
41 | CCOC(=O)CCSc1nc(C)c2cc(C)ccc2n1 | -65% | -2.2%
42 | CN(CC(=O)NCc1ccc(F)cc1)S(=O)(=O)c1ccc(Br)s1 | -1% | -0.3%
43 | COCc1[nH]nc2c1C(c1c(F)cccc1Cl)C(C#N)=C(N)O2 (stereo unspecified) | 3% | -7.0%
44 | COC(=O)CCN1CCC2CC1c1cc(-c3cccc(C)c3)ccc12 (stereo unspecified) | . | -0.4%
45 | CS(=O)(=O)c1ccc(Cl)c(NC(=O)COC(=O)c2ccc(-n3cnnn3)cc2)c1 | . | 7.0%
46 | Cn1c(SCc2n[nH]c(=S)o2)nnc1-c1ccccc1 | -4% | 0.8%
47 | Cc1ccccc1CN(CC1CCC(C(=O)O)CC1)C(=S)Nc1ccccc1F (stereo unspecified) | 1% | 2.0%
48 | Cc1cc(C)c(S(=O)(=O)/N=C2\C=C(Nc3ccc(C(=O)O)cc3)C(=O)c3ccccc32)c(C)c1 | ? | ?
49 | Cn1c(=O)n(Cc2ccc(Cl)cc2)c(=O)c2c1nc1n2CCN1Cc1ccco1 | -3% | -0.1%
50 | COC(=O)CC1C(=O)NCCN1C(=O)Nc1cccc(Cl)c1 (stereo unspecified) | 1% | -0.2%

# | Rango release inh | GLA inh pH 4.5
41 | -10% | 2
42 | 1% | .
43 | 23% | 8
44 | -9% | .
45 | -8% | .
46 | -1% | 4
47 | 11% | -5
48 | 0% | .
49 | 1% | -5
50 | -6% | 4

# | Molecule | miR-21 reporter | Rango-impB inh
51 | CCOC(=O)c1cccnc1SCC(=O)NCc1ccccc1 | -3% | 4.4%
52 | CC(=O)N1c2ccc(S(=O)(=O)N3CCCC(C(=O)NCc4ccccc4)C3)cc2CC1C (stereo unspecified) | 4% | 4.2%
53 | FC(F)(F)C1=CC(c2ccccc2)=NCCN1 | -1% | -1.1%
54 | CCN1CCN(C(=O)C2CCN(Cc3cc(Cl)ccc3O)CC2)CC1 | -6% | 0.4%
55 | CCS(=O)(=O)c1ccc2oc(SCC(=O)N3c4ccccc4CC3C)nc2c1 (stereo unspecified) | 15% | 2.2%
56 | Cc1cccc(C)c1NC(=S)N1CCCN(C)CC1 | 9% | -3.0%
57 | COc1ccc2oc(C(=O)OCC(=O)Nc3cc(S(=O)(=O)N4CCOCC4)ccc3OC)c(C)c2c1 | . | -0.1%
58 | O=C(COc1ccc(Br)cc1F)NCC1(N2CCCCC2)CCCCC1 | . | -2.7%
59 | COc1cc(OC)cc(-c2nnc(N(C)C(=O)c3ccncc3)s2)c1 | -15% | 3.5%
60 | COc1ccc(/C=N\NC(=O)c2ccccc2F)cc1COc1ccc(F)cc1F | 6% | 0.1%

# | Rango release inh | GLA inh pH 4.5
51 | -3% | 9
52 | -8% | .
53 | 13% | 1
54 | 3% | 2
55 | 5% | 0
56 | 21% | -3
57 | -11% | .
58 | 12% | .
59 | 12% | -3
60 | 0% | .

# | Molecule | miR-21 reporter | Rango-impB inh
61 | CCCNC(=O)C(Cc1ccc(Cl)cc1)NC(=O)c1ccc(C#N)cc1 (stereo unspecified) | . | 4.8%
62 | COc1cc(/C=N/NC(=O)c2cc(C3CC3)[nH]n2)cc(OC)c1OC | 10% | 0.0%
63 | CC1(c2nnc(-c3ccccc3)o2)CC(c2ccccc2)=NO1 (stereo unspecified) | . | -0.9%
64 | Cc1ccc(C(=O)CCC(=O)NN2C(=O)NC3(CCCCC3)C2=O)cc1 | . | -3.3%
65 | O=c1c2c(C(F)(F)F)cc(C(F)(F)F)nc2[nH]n1-c1ccccc1 | 6% | 0.2%
66 | Nc1cccc(S(=O)(=O)c2ccc(N)c(N)c2)c1 | 4% | -1.3%
67 | CC(C)N(C)Cc1nnnn1CC(=O)NCc1cc(F)cc(C(F)(F)F)c1 | 0% | -1.9%
68 | Cc1ccc2occ(CN3CCN(Cc4ccccc4)CC3)c(=O)c2c1 | -43% | .

# | Rango release inh | GLA inh pH 4.5
61 | 3% | .
62 | -2% | .
63 | -2% | .
64 | -22% | .
65 | -2% | 4
66 | -14% | 9
67 | 16% | .
68 | . | ?

Source: PubChem

Only part of the results is shown; the hit share may differ from the screen's.
